Compound activity: PubChem BioAssay, National Center for Advancing Translational Sciences (NCATS)
gsp agonist = qHTS for Agonist of gsp, the Etiologic Mutation Responsible for Fibrous Dysplasia/McCune-Albright Syndrome: qHTS. gsp mutant cells, cAMP HTRF, 30 min; control for the full effect not named in the record. Potency, µM (series often up to 76.9 µM), for inactives: top-dose activation (cAMP increase), usual class: activators. actives 0.13% (n = 340,000). AID 624287, 2012; active = well fitted activation curve with a large enough effect; inconclusive = small, poorly fitted or top-dose-only effect, or another doubt; inactive = no such curve, though single readings can be large or run the other way; cell line not stated here;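 also: phosphodiesterase inhibitor Ro 20-1724 added with compounds to block cAMP breakdown; potency is read from the fitted curve at half-maximal effect; nearly all actives have a fitted effect of over 60% in size; about a fifth of the inactives were tested at one dose only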
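Cells stably selected in G418 were plated at 2000/well, grown 16-24 hr, then given compounds in DMSO with the PDE inhibitor […] (300 uM solution added) for 30 min at 37C; cAMP was read by HTRF.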
gsp antag = qHTS for Antagonists of gsp, the Etiologic Mutation Responsible for Fibrous Dysplasia/McCune-Albright Syndrome: qHTS; gsp-mutant cells, cAMP HTRF, 30 min; control for the full effect not named in the record; Potency, µM (titrated, usually from 76.9 µM), for inactives: at the top dose activity change, negative = inhibition, hits mostly inhibitors; actives 0.4% (n = 340,000); AID 624288, 2012; active = falling curve of any shape with a large fitted effect; inconclusive = falling curve, mostly with a smaller effect; inactive = flat or rising curve; cell line not stated here;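 also: intracellular cAMP measured with PDE inhibitor Ro 20-1724 present during compound exposure; potency is read from the fitted curve at half-maximal effect; % is scaled to controls: 0 for no effect and ±100 for the full control effect; nearly all actives have a fitted effect of over 65% in size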
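HTRF cAMP read-out (cAMP-d2 plus anti-cAMP antibody-K in lysis buffer, 30 min RT). Before lysis, cells are exposed to compounds with […] for 30 min at 37C in DPBS containing Ca/Mg, BSA and Tween 20.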
ClpP mod = qHTS Assay for Activators of ClpP. ATP-dependent Clp protease proteolytic subunit (Bacillus subtilis (strain 168)), P80244. purified B. subtilis ClpP, FRET peptide cleavage, 20 min. Potency, µM (doses to about 57.5 µM), inactives show top-dose activity change, negative = active. actives 1.9% (n = 340,000). AID 651965, 2013; active = well fitted falling curve with a large enough effect; inconclusive = small, poorly fitted or top-dose-only effect; inactive = no such curve, though single readings can be large or run the other way; also: potency is read from the fitted curve at half-maximal effect; the source files actives as falling curves though it sought activators and does not explain the sign; nearly all actives have a fitted effect of over 65% in size; many hits overshoot -100%
Target sequence (P80244 whole entry, looked up): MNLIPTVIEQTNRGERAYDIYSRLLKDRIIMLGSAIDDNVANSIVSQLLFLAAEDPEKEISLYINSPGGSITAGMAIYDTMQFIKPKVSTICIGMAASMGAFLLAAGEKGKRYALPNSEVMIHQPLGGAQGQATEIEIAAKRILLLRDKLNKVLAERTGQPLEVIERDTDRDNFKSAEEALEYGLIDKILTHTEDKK
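FRET quenching reversal measured ClpP activation: 10 microg/mL B. subtilis ClpP at pH 8 with the FRET-FV decapeptide, read at 430 nm after 320 nm excitation. The 20-min minus 0-min signal was scaled between DMSO/no-enzyme wells and ADEP (5.8 microM final).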
Sfp inh = qHTS Assay for Inhibitors of Bacillus subtilis Sfp phosphopantetheinyl transferase (PPTase); Biochemical Sfp PPTase activity, qHTS; AID 1490, 2009; 4'-phosphopantetheinyl transferase ffp (Bacillus subtilis), Q9F4F7; actives 3.5% (n = 310,000); Potency, µM, without a hit: max response, negative = inhibition, usual class: inhibitors; active = well fitted inhibition curve with a large enough effect; inconclusive = small, poorly fitted or top-dose-only effect, or another doubt; inactive = no such curve, though single readings can be large or run the other way;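 also: the enzyme is Sfp with the accession as filed and its product quenches rhodamine fluorescence; potency is read from the fitted curve at half-maximal effect; 0% = enzyme reaction without inhibitor and -100% = no enzyme wells; top concentration of the series not given in the record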
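After 15 min at room temperature with compound, 15 nM Sfp received 5 uM rhodamine-CoA plus 12.5 uM BHQ-2-ybbR (50 mM Hepes pH 7.6, 10 mM MgCl2). Rate came from the fluorescence difference over 30 min, ex 525/em 598 nm.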
CtBP-E1A inh = qHTS Assay for Inhibitors of the CtBP/E1A Interaction; actives 0.49% (n = 340,000); AID 651724, 2012; activity change, % (no concentration beside the values); AlphaScreen GST-E1A/His-CtBP binding, 1536-well; hits give low values; control for the full effect not named in the record; CtBP / adenovirus E1A interaction (AlphaScreen); in the data active means activity change below about -65%; inconclusive means about -30% to -65%; inactive means above about -30%; also: % is scaled to controls: 0 for no effect and ±100 for the full control effect; compound concentration not given in the record
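GST-E1A and His-tagged CtBP (125 nM each as 5X stock) were preincubated with pin-transferred compound for 2 h at 37 °C in the dark, then glutathione donor and nickel acceptor beads were added for 1 h before AlphaScreen reading.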
TRPV1 potentiator = HTS Assay for Compounds that Act as Potentiators of the Vanilloid Receptor 1; TRPV1-expressing cells, Fluo-8 calcium influx, capsaicin EC20 potentiation; host cell line not named in the record; control for the full effect not named in the record; potentiation, % at 8.33 µM; AID 540277, 2011; actives 0.02% (n = 320,000); Transient receptor potential cation channel subfamily V member 1 (Homo sapiens), Q8NER1; active means potentiation above 80%; inconclusive means 30% to 80%; inactive means below 30%; also: 0% is about no effect
Target sequence (Q8NER1 whole entry, looked up): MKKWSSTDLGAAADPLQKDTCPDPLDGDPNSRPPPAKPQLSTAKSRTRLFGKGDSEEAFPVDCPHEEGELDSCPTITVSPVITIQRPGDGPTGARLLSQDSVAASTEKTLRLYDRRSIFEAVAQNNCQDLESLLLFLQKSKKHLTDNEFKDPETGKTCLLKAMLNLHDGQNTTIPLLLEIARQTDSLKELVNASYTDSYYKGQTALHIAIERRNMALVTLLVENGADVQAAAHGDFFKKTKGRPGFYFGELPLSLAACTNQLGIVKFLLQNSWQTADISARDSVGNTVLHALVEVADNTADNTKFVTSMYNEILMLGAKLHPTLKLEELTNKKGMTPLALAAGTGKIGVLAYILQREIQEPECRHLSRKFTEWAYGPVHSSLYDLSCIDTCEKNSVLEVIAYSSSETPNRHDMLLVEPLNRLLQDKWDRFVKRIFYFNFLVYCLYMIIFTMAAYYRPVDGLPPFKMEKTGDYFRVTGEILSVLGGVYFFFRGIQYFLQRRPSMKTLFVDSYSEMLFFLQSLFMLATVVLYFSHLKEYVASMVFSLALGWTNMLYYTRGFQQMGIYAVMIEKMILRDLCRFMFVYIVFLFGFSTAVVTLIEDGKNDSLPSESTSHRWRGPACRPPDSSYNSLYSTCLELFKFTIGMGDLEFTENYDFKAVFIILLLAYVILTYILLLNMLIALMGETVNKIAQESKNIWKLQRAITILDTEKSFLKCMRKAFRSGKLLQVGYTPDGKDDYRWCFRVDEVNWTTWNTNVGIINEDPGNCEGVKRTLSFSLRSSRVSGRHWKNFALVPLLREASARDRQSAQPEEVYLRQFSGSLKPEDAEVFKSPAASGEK
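Cells expressing TRPV1 were dye-loaded with Fluo-8 and read kinetically: 10 s baseline, 3 min after compound (agonist portion), then 2 min after EC20 capsaicin (allosteric enhancer portion). Calcium-bound dye fluorescence at 480/520 nm.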
Menin MLL FP FL = qHTS Assay for Inhibitors Targeting the Menin-MLL Interaction in MLL Related Leukemias: Competition With Fluorescein Labeled MLL-derived Peptide; Fluorescence polarization, fluorescein-MLL peptide displacement from menin; FP activity change, % at 61.4 µM; 290,000 tested, under 10 active; inconclusive = falling polarisation curve, or a change in total fluorescence; inactive = total fluorescence flat and polarisation flat or rising; no compound was filed as active; the % refers to the polarisation; negative = inhibition;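 also: % of control where 0% means no effect; inhibitors lower the polarisation; unlabelled MLL peptide was the positive control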
Active calls of the source: *; ? = inconclusive; · = no result given; & = joins results of further samples; [ ] = dose if it differs, or a comment.

Structure	gsp agonist	gsp antag	ClpP mod	Sfp inh	CtBP-E1A inh	TRPV1 potentiator	Menin MLL FP FL
CC1CCc2nc(/C(C#N)=C/c3cccnc3)sc2C1 (centres undefined)	9%[15.4 µM]	?	·	-9%	2	-8	-0.2
O=C(CN1C(=O)COc2ccc(S(=O)(=O)N3CCCCC3)cc21)NCc1ccccc1Cl	?	-14%	-1.0%&-0.9%	0%	-8	-2	0.8
COC(=O)c1ccccc1NC(=O)c1noc2c1CCCC2	-9%	-16%	-2.9%	1%	3	-2	1.4
Cc1ccc(S(=O)(=O)N(CC(=O)N2CCc3ccccc3C2)c2ccc(Cl)c(Cl)c2)cc1	17%[15.4 µM]	-21%	-0.5%	9%	-3	2	0.1
Cc1ccc(S(=O)(=O)Oc2ccccc2[N+](=O)[O-])cc1	-2%	-13%	·	·	-27	·	·
C#CC[N+]1(CC#Cc2cccc(C)c2)CCCCC1	1%[15.4 µM]	3%	·	8%	-1	4	0.8
O=C(CNC1CC1)Nc1cc(C(F)(F)F)ccc1Cl	-13%	4%	-0.9%	-30%	·	-9	0.0
CCOC(=O)N1CCC(N(CCOC)C(=O)Nc2ccc(CC)cc2)CC1	-34%[inhibitor]	-7%	-5.4%	8%	8	0	-0.3
Cc1ccc(-n2c(C)nc3c(cnn3-c3ccc(F)cc3)c2=O)cc1	-7%	?	-1.1%	-7%	4	-3	1.7
O=C(COC(=O)Cc1ccc(S(=O)(=O)N2CCOCC2)s1)Nc1ccccc1Cl	-23%	-3%	-0.8%	·	2	·	·
N#CCC(=O)Nc1ccc(C(=O)NNC(=S)NC2CC2)cc1	-5%[15.4 µM]	9%	-1.6%	·	-21	-9	·
CN(C)/C=C(\C(=O)c1ccccc1)c1nnnn1-c1ccc(F)cc1	20%[15.4 µM]	7%	·	18%	-24	-1	2.8
COC1OC(COC(=O)CNC(=O)OC(C)(C)C)C(O)C(O)C1O (centres undefined)	27%	15%	·	2%	2	-7	4.8
CC(C)CNC(=O)c1ccc(Cl)c(Cl)c1	23%	-5%	1.8%	4%	4	-8	3.0
CCOC(=O)c1[nH]c(C)c(C(=O)Nc2ccc3c(c2)OCCO3)c1C	-1%	-25%	0.3%	3%	-2	-2	-0.9
C[C@H](Nc1ncnc2sc3c(c12)CCC3)C(=O)O	-18%	0%	0.7%	28%	0	-5	10
O=C(CSc1nc(O)c(C(c2ccccc2)c2ccccc2)c(=O)[nH]1)N1CCOCC1	?	2%	·	25%	0	18	-3.4
O=C(NCC1CCCO1)C(c1ccccn1)N(Cc1ccccc1Cl)C(=O)CN1C(=O)c2ccccc2S1(=O)=O (centres undefined)	16%	-4%	·	8%	1	-8	-4.6
COc1ccc(CN2C(=O)C(CC(=O)NCCCCc3ccccc3)CC(C(=O)N(C(C)C)C(C)C)=C2C)cc1 (centres undefined)	?	·	-1.1%	·	-4	·	·
COCCNC(=O)/C(C#N)=C/c1ccccc1Br	4%[15.4 µM]	4%	·	5%	-7	3	-10
COc1ccc(N2CC(C(=O)O)CC2=O)cc1 (centres undefined)	-17%	0%	0.0%	-10%	10	-13	0.5
CCCCn1c(N)c(N(CC(C)C)C(=O)c2ccc(N3C(=O)CCC3=O)cc2)c(=O)[nH]c1=O	14%[15.4 µM]	2%	-3.0%	·	1	7	·
CCCCC(Sc1nc(N)c(NC(=O)c2ccc(OC)cc2)c(=O)[nH]1)C(=O)O (centres undefined)	9%[15.4 µM]	11%	·	4%	-4	-9	-13
CCCC(=O)Nc1ccc(-c2csc(NNC(C)=O)n2)cc1	25%	6%	·	5µM*	-24	12	0.1
CC(C)N(Cc1ccccc1)C(=O)CN1c2cccc3cccc(c23)S1(=O)=O	0%	-10%	-27%	·	0	·	·
CCN(CC)c1ccc2cc(C(=O)O)c(=O)oc2c1	8%	-6%	-22%	12%	-8	12	4.8
C[C@H](CO)N1C[C@H](C)[C@@H](CN(C)Cc2ccc(Cl)c(Cl)c2)Oc2c(NS(=O)(=O)c3ccc(F)cc3)cccc2C1=O	·	?	0.8%	·	-4	·	·
O=C1c2ccccc2C2(c3ccccc3)NCCCN12 (centres undefined)	-1%	15%	1.4%	10%	11	8	-4.4
COc1ccc(CN(C)c2ccc(S(=O)(=O)N3CCN(C)CC3)cc2[N+](=O)[O-])cc1OC	-40%[inhibitor]	-14%	-2.0%	·	-2	-3	·
COC(=O)Cn1c(=NC(=O)c2ccc(Cl)s2)sc2cc(F)ccc21	3%	-20%	28µM*	11%	1	-18	-0.3
CCOc1ccccc1NC(=O)C1CC(=O)n2ncnc2N1 (centres undefined)	-26%	4%	0.3%	-12%	2	6	-0.3
O=C(Nc1ccccc1)C1=C[C@H](c2coc3ccccc3c2=O)C[C@H](OCCCCO)O1	?	-8%	-0.8%	16%	-1	10	5.8
O=[N+]([O-])c1ccc(Oc2ccc(-c3cnc4ccccc4n3)cc2[N+](=O)[O-])cc1	-25%	-8%	-11%	-12%	1	-1	-2.6
CCCN(CCC)C(C(=O)Nc1cccc(OC)c1)c1ccccc1 (centres undefined)	-12%	-11%	0.2%	8%	5	-6	0.7
COc1ccc(C2(C)NC(=O)N(CC3CCCCC3)C2=O)cc1 (centres undefined)	-10%	0%	·	15%	8	-8	·
CC(C(=O)NC1=NCCS1)N1C(=O)c2ccccc2C1=O (centres undefined)	10%	3%	0.8%	-2%	2	9	2.6
COc1ccc(SCC(=O)c2cc(C)c(OC(=S)N(C)C)c(C)c2)cc1	-21%	?	-1.9%	-10%	-1	-3	-0.9
NC(=O)COC(=O)c1ccccc1OCc1ccccc1Cl	-20%	-2%	-10%	10%	-8	-20	-2.9
CCOC(=O)C1CCCN(CCC(=O)Nc2ccc(C)c(C)c2)C1 (centres undefined)	?	0%	·	10%	0	-2	0.8
Clc1ccc(Cl)c(OCCCCNCc2ccccc2)c1	6%	7%	-2.7%	-22%	12	-2	·
Cc1ccccc1NC(=S)N(CCCN1CCOCC1)Cc1cccnc1	-6%	5%	·	2%	0	2	-4.5
CC(=O)c1cccc(NC(=S)NC(=O)c2cccc(Cl)c2)c1	1%	-14%	4.3%	-17%	-8	-6	1.0
O=[N+]([O-])c1ccc(O)c(C2=NNC(c3ccccc3F)C2)c1 (centres undefined)	-16%[15.4 µM]	?	·	19%	-8	-6	2.4
CCOc1cc(N2CCOCC2)c(OCC)cc1NC(=O)COC(=O)c1cc(C)oc1C	29%	1%	9.6%	18%	7	18	1.6
O=S(=O)(NCc1ccccc1)NCc1cccc(C(F)(F)F)c1	-6%	6%	·	15%	8	6	-0.1
COc1ccccc1NC(=O)CSc1nnc(Cn2nnc(-c3ccccc3)n2)n1-c1ccccc1	8%	-9%	-3.7%	-3%	-9	-14	6.6
Cc1nnc(SCC(=O)Nc2cc(C(F)(F)F)ccc2Cl)n1C	-31%[inhibitor]	-3%	-1.4%	8%	5	-2	-1.3
Cc1ccccc1CN1CCC(Oc2ccc(C(=O)N3CCCC3)cc2)CC1	2%	16%	0.1%	-5%	0	-20	2.0
Cc1ccc(S(=O)(=O)N(C)CC(=O)N2CC(C)OC(C)C2)cc1 (centres undefined)	26%	9%	0.9%	20%	14	-17	·
COc1ccc(C(C(=O)NC2CCCCC2)N(C(=O)CCl)c2ccccc2Cl)cc1 (centres undefined)	-15%[15.4 µM]	9%	-2.4%	20%	0	0	2.2
Cc1cc(C(=O)NC2CC(C)(C)Cc3c2cnn3-c2ccc(F)cc2)nn1C (centres undefined)	-11%	-11%	-2.4%	13%	-6	11	·
CCS(=O)(=O)c1c(S(=O)(=O)CC)c2ccccn2c1C(N)=O	36%	2%	-7.0%	16%	·	-1	-3.0
CN1CCN(NC(=O)CC(C)(C)C)CC1	-41%[inhibitor]	16%	1.5%	-7%	3	2	-2.3
Cc1ccc(NC(=O)CSc2nnc(C3CC3)n2CC2CCCO2)cc1C (centres undefined)	-8%[15.4 µM]	-15%	·	2%	-3	4	-13
CC1CCN(S(=O)(=O)N2CCN(C(=O)c3ccc4c(c3)OCO4)CC2)CC1	19%[15.4 µM]	-32%	·	13%	5	1	-5.6
O=C(Nc1cccnc1)c1noc2c1CCCCC2	13%	12%	-0.7%	6%	14	4	0.0

Carrying on.
Structure	gsp agonist	gsp antag	ClpP mod	Sfp inh	CtBP-E1A inh	TRPV1 potentiator	Menin MLL FP FL
COc1ccc(CCN2C(=O)C3CC=C(C)CC3C2=O)cc1OC (centres undefined)	-16%	13%	-8.3%	8%	2	5	5.0
NC(=O)c1ccc(NC(=O)CC23CC4CC(CC(Br)(C4)C2)C3)cc1	-36%[inhibitor]	7%	-2.0%	8%	-27	-14	2.2
Cc1ccc2[nH]c(C)cc(=S)c2c1	26%[15.4 µM]	·	·	?	9	-13	-0.9
Cc1cccc(C2=N/C(=C/c3cccs3)C(=O)O2)c1	1%	-10%	-0.8%	-2%	·	10	1.2
Cc1csc(SC(C)C(=O)Nc2ccc(F)cc2Cl)n1 (centres undefined)	-1%[15.4 µM]	-10%	2.9%	·	1	·	·
CC(SC(C)C(=O)NN=Cc1c[nH]c2ccccc12)C(=O)NN=Cc1c[nH]c2ccccc12 (centres undefined)	4%	10%	·	·	-6	·	·
COc1ccc(NC(=S)Nc2ccc(S(=O)(=O)N3CCCCC3)cc2)cc1	8%	·	-1.3%	·	2	·	·
